Screens (PubChem BioAssay)
MT1-MMP act inh: blocks activation of human MT1-MMP | 360,000 compounds, 0.061% hits | GFP/RFP ratio change, % at 20 µM | HT1080 RFP-PRO-GFP cells, GFP/RFP ratio fluorescence, overnight; percent of plate control window, DMSO zero | P50281;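 active means GFP/RFP ratio change of at least 30% with cell ATP level not reduced by more than half and red fluorescence within 50% of control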; further: strong numbers were not always called active
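Assay system: HT1080 cells carrying an RFP-PRO-GFP reporter | Dosing: Single dose of 20 µM compound, 1% DMSO final | Incubation: Cells overnight before dosing, compound overnight, 37 °C, 5% CO2 | Evaluation: GFP/RFP fluorescence ratio | Control set: DMSO and RFP-L50D-GFP cell wells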
eIF4H inh: inhibitors of RNA binding by human eIF4H; inhibition, % at 35 µM; eIF4H fluorescence polarization binding assay; 290,000 compounds, 0.94% hits;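 active means 50% or more with normal probe brightness, or confirmed in later tests; inconclusive means above 50% with abnormal brightness, or retests that disagree; inactive means below 50% or failed in later tests; about a fifth of its hits are not listed in these tables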;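 further: calls also rest on retests at 20 µM and on dose response follow-up; 0% = protein and probe with vehicle and 100% = probe without protein; strong numbers were not always called active; many hits fall short of the cut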
Rce1 inhib: blocks yeast Ras-converting enzyme; Q03530; yeast membranes, quenched prenylated peptide cleavage fluorescence; calls only; 290,000 compounds, 0.27% hits; AID 2563;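 active means fall in fluorescence gain of 50% or more versus controls, with final raw signal at or below 3038400; inconclusive means same 50% fall but final raw signal above 3038400; inactive means fall in fluorescence gain under 50%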;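 further: plate controls were neutral control wells for no effect and wells lacking membranes for full effect; tested at 10 µM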
CSC inhib: blocks cancer stem cells; cancer stem cell-like cells viability, luminescence; inhibition, % at 7.5 µM; 300,000 compounds, 1.1% hits; AID 2717;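 active means mean at 75% or more and at least half the replicates too; inconclusive means mean and replicates disagree; tested in HMLE shEcad cells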;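 further: 0% = median of negative and 100% = median of positive control wells; the first replicate is given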
HIV Env fusion: blocks HIV Env-driven cell-cell fusion; HeLa-JRFL Env/CEM21 cell fusion, luciferase; inhibition, % at 12.3 µM; 360,000 compounds, 1.1% hits;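 active means mean replicate inhibition score of at least 50 and every replicate individually at or above 50; inconclusive means only one of the two criteria met; inactive means mean below 50 and not all replicates reaching 50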;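 further: 0% = plate neutral controls and 100% = maraviroc near 300 nM; one replicate is shown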
PABP FP inh: PABP-poly(A) binding inhibition. 290,000 compounds, 1% hits. PABP-poly(A) RNA binding, fluorescence polarization. P11940. inhibition, % at 35 µM. AID 2014;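 active means 50% or more with normal probe brightness, or confirmed in later tests; inconclusive means above 50% with abnormal brightness, or retests that disagree; inactive means below 50% or failed in later tests; about a fifth of its hits are not listed in these tables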;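 further: calls also rest on retests at 20 µM and on dose response follow-up; controls were probe without protein and protein plus probe with vehicle; some compounds called inactive have numbers as strong as hits; many hits fall short of the cut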
Target sequence (P11940 whole entry, looked up): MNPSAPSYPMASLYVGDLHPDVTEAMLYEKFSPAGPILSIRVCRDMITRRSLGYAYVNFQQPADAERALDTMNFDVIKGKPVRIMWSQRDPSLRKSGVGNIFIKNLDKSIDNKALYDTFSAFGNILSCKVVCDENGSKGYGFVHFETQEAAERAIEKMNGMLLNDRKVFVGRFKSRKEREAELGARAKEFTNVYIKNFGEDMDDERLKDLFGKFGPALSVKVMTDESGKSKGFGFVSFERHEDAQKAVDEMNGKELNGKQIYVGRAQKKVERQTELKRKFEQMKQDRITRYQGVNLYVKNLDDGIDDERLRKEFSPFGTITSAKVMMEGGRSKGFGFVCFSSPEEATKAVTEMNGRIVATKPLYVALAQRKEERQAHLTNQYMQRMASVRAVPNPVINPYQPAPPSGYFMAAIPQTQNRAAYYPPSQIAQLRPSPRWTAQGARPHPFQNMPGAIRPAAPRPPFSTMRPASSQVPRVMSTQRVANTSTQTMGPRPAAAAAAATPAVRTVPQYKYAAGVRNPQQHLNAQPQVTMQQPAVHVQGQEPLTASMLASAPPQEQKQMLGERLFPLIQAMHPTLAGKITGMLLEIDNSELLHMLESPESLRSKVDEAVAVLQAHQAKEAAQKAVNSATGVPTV
UUG fidelity: modulators of start codon recognition fidelity in yeast | S. cerevisiae UUG-firefly luciferase reporter, luminescence/redox ratio | activity score, % at 18.7 µM | 350,000 compounds, 0.13% hits;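 active means replicate mean at a twofold rise or more, about +100% in these data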;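 further: firefly luciferase made from a UUG start codon reports start codon fidelity; reporter light over untreated wells divided by growth signal over untreated wells; some hits fall short of that in this replicate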
eIF4H inh retest: second read-out of eIF4H inh, no call of its own (marks repeat the call); inhibition, %; compound at 20 µM; confirmation average;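 mean of two retest wells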
PABP FP inh retest: also measured in PABP FP inh; calls as there; inhibition, %; compound at 20 µM; confirmation repeats;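 mean of two retest wells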
MT1-MMP act inh RFP: second read-out of MT1-MMP act inh, no call of its own (marks repeat the call); RFP signal change, %; measured here: RFP expression control read;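 0 = vehicle wells; hits needed this value within 50% of zero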
Numbers without * were called inactive; i = inactive; ? = inconclusive; / = not tested or not shown.

SMILES | MT1-MMP act inh | MT1-MMP act inh RFP | eIF4H inh | Rce1 inhib | CSC inhib | HIV Env fusion | PABP FP inh | UUG fidelity | others
CN1CCN(S(=O)(=O)c2ccc(Oc3ccc(Br)cc3F)nc2)CC1 | 3 | -5 | / | i | 7 | -3 | / | -12
CCNC(=O)N1CCN(CCCC(c2ccc(F)cc2)c2ccc(F)cc2)CC1 | 6 | -4 | / | / | -7 | ? | / | -18
O=C(COC(=O)c1ccccc1C(=O)c1ccc(Cl)cc1)NC(c1ccccc1)c1ccccc1 | -6 | -12 | 8 | i | 3 | 18 | 12 | /
N=c1c2c(n(Cc3ccc([N+](=O)[O-])cc3)c3c1CCC3)CCCC2 | -3 | -11 | 10 | i | -2 | 25 | 2 | /
CCCCn1c(=O)c2ccccc2n2c(=S)[nH]nc12 | -3 | -4 | -4 | i | -17 | 15 | 15 | /
COc1ccc(C(=O)N/N=C/c2ccc3cccc(OCc4ccccc4)c3n2)cc1 | 0 | -8 | -2 | i | 41 | -39 | -10 | -14
O=C(c1cc([N+](=O)[O-])ccc1Cl)N1CCN(c2ccc([N+](=O)[O-])cc2)CC1 | 5 | -24 | -6 | i | 2 | / | 4 | /
CN(C)CCNC(=O)Cc1ccc([N+](=O)[O-])cc1 | -3 | 0 | 2 | i | -8 | 10 | 3 | /
CCc1ccccc1Nc1nn2c(=O)c3ccc(C(=O)NCc4ccccn4)cc3nc2s1 | 1 | -4 | 20 | i | 83* | 5 | 6 | -15
CCOc1ccccc1Nc1nnc(SCC(=O)Nc2cc(C)on2)s1 | 4 | 5 | 3 | i | -3 | -96 | -4 | -3
CCOc1ccc(S(=O)(=O)NCCCN2CCOCC2)c2ccccc12 | 4 | 3 | -6 | i | -18 | / | 2 | -8
CC(=O)c1cnc2nc(C)nn2c1C | 0 | 0 | 4 | i | 11 | -10 | -1 | -17
COc1cc(C(=O)Nc2cc(C(F)(F)F)ccc2Cl)cc(OC)c1OC | 1 | 3 | 2 | i | -4 | / | -8 | 3
CC(=O)c1c(C)[nH]c(C(=O)Nc2nc(C)cs2)c1C | 1 | -4 | 12 | i | -1 | 27 | -4 | -80
CC(=O)Nc1ccc(S(=O)(=O)N(C)S(=O)(=O)c2ccc(F)cc2)cc1 | 1 | 3 | -8 | i | -12 | -14 | -6 | -3
N/C(=N\OC(=O)c1ccncc1)c1cccc([N+](=O)[O-])c1 | 4 | 2 | 4 | i | -1 | -17 | 9 | -9
COc1ccc(Cl)cc1NC(=O)CSc1ncnc2c1oc1ccccc12 | 1 | -4 | -6 | i | -3 | 1 | 14 | /
O=C(O)Cc1sc(N/N=C\c2ccncc2)nc1-c1ccccc1 | -87 | -3 | 38 | i | 0 | 21 | -8 | /
NCCCC[C@H]1CNC(=S)N1CCc1cc(C(F)(F)F)cc(C(F)(F)F)c1 | -3 | 1 | -4 | i | 7 | -1 | 3 | -20
O=C(c1ccc(COc2ccc(Cl)cc2)o1)N1N=C(C(F)F)CC1(O)C(F)F (stereo unspecified) | 2 | -6 | 4 | i | 30 | 0 | 5 | -22
CCOc1ccc(C2C(C(=O)Nc3ccccc3)=C(C)N=c3s/c(=C/c4cccc(OCC(=O)O)c4)c(=O)n32)cc1 (stereo unspecified) | -2 | 3 | 9 | i | 3 | 4 | 28 | /
Nc1cc(N)nc(SCc2cccnc2)n1 | 1 | -1 | -11 | i | 2 | / | 3 | 3
COc1ccc(-c2c(C)oc3c(CN4CCCCC4C)c(O)ccc3c2=O)cc1 (stereo unspecified) | 1 | -8 | -11 | ? | 3 | -6 | -3 | -8
COc1ccccc1N1CCN(C(=O)c2cc(-c3ccccc3)on2)CC1 | -3 | -1 | -14 | i | 0 | 2 | 4 | 1
CCNc1nc(NCC)nc(SCCOC(=O)c2ccccc2)n1 | 4 | 1 | -2 | i | -2 | -26 | 6 | -3
CNC(=S)N/N=C/c1cc(C)ccc1C | 6 | 3 | -6 | i | -20 | -14 | -7 | /
Cc1ccccc1Cn1nc(C)c(NC(=O)c2cc(-c3cccs3)on2)c1C | 0 | -12 | -9 | i | 9 | / | -3 | -4
CCOC(=O)/C(C#N)=N/Nc1c(C)n(C)n(-c2ccccc2)c1=O | 7 | 5 | 3 | i | -11 | -4 | -1 | -13
COc1cccc2sc(N3CCN(C(=O)c4ccco4)CC3)nc12 | 4 | 0 | / | i | 1 | -19 | / | 20
Cn1nc(C(F)(F)F)c2cc(C(=O)Nc3ccc(C(F)(F)F)cc3)sc21 | 0 | -13 | -5 | i | 72 | -4 | 0 | /
CCOC(=O)c1cc(C#N)c(N2CCN(C(=O)c3ccccc3)CC2)nc1C(F)(F)F | 3 | -7 | 3 | i | 13 | 16 | 5 | /
COCCCNC(=O)C(=O)NCC(c1ccco1)N1CCN(c2ccc(OC)cc2)CC1 (stereo unspecified) | 1 | 3 | -4 | i | -10 | 10 | -2 | -15
COc1cccc(OC)c1C(=O)NC(=S)N1CCN(c2ccc(C(F)(F)F)cc2[N+](=O)[O-])CC1 | 4 | -5 | -2 | i | -3 | / | -8 | -13
Cc1cccc(-n2c(CNC(=O)Cc3ccccc3)n[nH]c2=S)c1 | 2 | 6 | 3 | i | 1 | 12 | -10 | /
CCOc1ccc(-c2[nH]ncc2Oc2ccccc2OCC)c(O)c1 | 1 | -9 | -6 | i | 66 | / | -3 | -25
O=C(Nc1cccnc1N1CCOCC1)c1cccs1 | -1 | -1 | -10 | i | -2 | 9 | -4 | -10
CC(C)(C)C(=O)N1CCC2CC1c1cc(-c3ccc4c(c3)OCO4)ccc12 (stereo unspecified) | 4 | -7 | / | / | / | 30 | / | 4
CCOC(=O)C1(CC2CC2)CCN(Cc2cnc(N(C)C)s2)CC1 | 4 | 3 | 0 | i | -9 | -70 | 14 | -18
CC(=O)c1ccc(NCC2COc3ccccc3O2)c([N+](=O)[O-])c1 (stereo unspecified) | 10 | 6 | 7 | i | -9 | -152 | 5 | -17
O=C(CSc1nc2ccccc2n1CC(=O)N1CCCC1)Nc1nccs1 | -3 | 0 | 2 | i | 1 | / | 4 | -15

By substructure: the compounds so far containing a cyano group (two)
SMILES | MT1-MMP act inh | MT1-MMP act inh RFP | eIF4H inh | Rce1 inhib | CSC inhib | HIV Env fusion | PABP FP inh | UUG fidelity | others
CCOC(=O)/C(C#N)=N/Nc1c(C)n(C)n(-c2ccccc2)c1=O | 7 | 5 | 3 | i | -11 | -4 | -1 | -13
CCOC(=O)c1cc(C#N)c(N2CCN(C(=O)c3ccccc3)CC2)nc1C(F)(F)F | 3 | -7 | 3 | i | 13 | 16 | 5 | /

Following part
SMILES | MT1-MMP act inh | MT1-MMP act inh RFP | eIF4H inh | Rce1 inhib | CSC inhib | HIV Env fusion | PABP FP inh | UUG fidelity | others
COc1ccc(S(=O)(=O)NCCC(=O)NCc2cccs2)cc1 | 9 | 6 | 4 | i | 1 | 20 | -7 | -4
O=C(NCc1ccccc1OC(F)(F)F)C1CCC(=O)N(Cc2ccccn2)C1 (stereo unspecified) | -3 | 1 | -1 | i | 10 | 1 | -2 | 6
COc1ccccc1-c1c(C(F)(F)F)oc2cc(OC(=O)c3cccc([N+](=O)[O-])c3C)ccc2c1=O | 4 | -2 | -10 | i | 2 | -27 | -2 | -19
Cc1c(NC(=O)c2cc3ccccc3oc2=O)c(=O)n(-c2ccccc2)n1C | 2 | 2 | 0 | i | -12 | -5 | 7 | -18
COc1ccc2c(c1OC)C(C1c3c(cc4c(c3OC)OCO4)CCN1C)OC2=O (stereo unspecified) | -3 | 1 | 2 | i | -9 | / | 8 | -17
C=CCn1c(SCc2ccccc2C#N)nnc1-c1ccccc1O | 1 | -1 | -11 | i | -2 | -63 | -4 | -10
O=C(CN1C(=O)C2C3CCC(C3)C2C1=O)OCC(=O)c1cccc([N+](=O)[O-])c1 (stereo unspecified) | 3 | 10 | -9 | i | -9 | 17 | -2 | -9
CCOC(=O)C1CCN(C(=O)c2cnn3c(C)cc(C)nc23)CC1 | -4 | 0 | -2 | i | -9 | -22 | -1 | -5
CCNc1nc2nonc2nc1NCC | 0 | 1 | 0 | i | -6 | / | 5 | -14
Cn1ccnc1SCc1ccc([N+](=O)[O-])cc1 | 3 | 3 | -4 | i | -7 | -24 | 11 | /
O=C1CC(C(=O)Nc2ccc(C(=O)O)cc2)C(c2ccccc2)O1 (stereo unspecified) | -4 | 1 | 5 | i | -5 | / | 0 | -16
O=C(COC(=O)c1cccc(F)c1)Nc1cccc(S(=O)(=O)N2CCOCC2)c1 | -2 | 9 | / | / | / | 11 | / | -2
CC(C)CCN1CCC(n2nccc2NC(=O)C2CCOC2)CC1 (stereo unspecified) | 1 | -1 | 10 | i | 17 | -7 | 16 | -13
CCOC(=O)N1CCC(c2cc(=O)n3[nH]ccc3n2)CC1 | -1 | 6 | -2 | i | -15 | -12 | 16 | -15
Cc1nc2c(OCc3ccc(Cl)cc3Cl)cccn2c1N(C)Cc1cccs1 | -9 | -34 | / | / | / | 14 | / | -19
C=CCNCCCCOc1ccc(OCc2ccccc2)cc1 | -2 | -6 | 6 | i | 32 | -11 | -4 | /
O=C(NCCCC(=O)N1CCOCC1)c1cccnc1 | -4 | -2 | -6 | i | -8 | / | -7 | -6
COc1ccc(N2CCN(c3nc(NCCc4ccc(OC)c(OC)c4)nc(OC)n3)CC2)cc1 | 1 | -15 | -14 | i | -10 | 39 | 1 | -2
O=C(Nc1ccccc1)C(Cc1cccs1)c1nn[nH]n1 (stereo unspecified) | 2 | 1 | 0 | i | -18 | -53 | 0 | -18
CCOc1ccccc1NC(=O)N1CCCc2ccccc21 | -3 | -1 | -10 | i | 9 | 15 | 2 | -1
COc1ccc(C(NC(=O)c2ccc(-c3ccccc3)cc2)c2ccccc2)cc1 (stereo unspecified) | 0 | 3 | -2 | i | 4 | / | -7 | /
CCOc1ccc(NC(=O)c2cc(Cl)nc3ccccc23)cc1 | -1 | -4 | 2 | i | 26 | -30 | -19 | -16
CN(C)c1ccc(/C=N/NC(=O)c2cccc(N3CCCC3=O)c2)cc1 | 0 | -2 | -6 | i | -17 | -18 | -3 | /
O=C(c1ccco1)N1CCN(C(=S)Nc2ccc(F)cc2)CC1 | 2 | -1 | -8 | i | / | 6 | 2 | -10
Cc1c(Cl)cccc1NS(=O)(=O)c1ccc2c(c1)C1C=CCC1C(c1ccc(C(=O)O)cc1)N2 (stereo unspecified) | 1 | 11 | 88 | / | -9 | / | 83 | / | eIF4H inh retest=-1;PABP FP inh retest=-1
CCCCn1c(CCc2ccccc2)nc2cc3[nH]c(=O)c(C(C)C)nc3cc21 | -3 | 3 | 32 | i | -1 | -6 | 34 | -2
COc1ccc(NC(=O)CSc2nc3ccccc3nc2N2CCCC2)c(OC)c1 | 8 | 4 | 0 | i | / | / | 0 | -1
COc1ccncc1-c1ccccc1C1=CC(=O)CC(C)(C)C1=O | 1 | 3 | / | / | / | 12 | / | -7
Cc1ccc2c(C(=O)CN3CCC(C(N)=O)CC3)c(C)[nH]c2c1 | -3 | -2 | 1 | i | 3 | / | 7 | -1
O=C(OCC(=O)N1CCCc2ccccc21)c1cnc(Cl)c(Cl)c1 | -1 | -3 | -2 | i | 2 | -6 | 4 | /
CCCc1ccc(OCc2ccc(C(=O)N3CCCC3)o2)cc1 | -2 | -8 | -6 | i | -10 | -24 | -2 | -5
CCC(CC)C(=O)NCc1ccccc1Cl | -4 | -3 | 0 | i | -15 | / | -2 | -5
